# High-throughput results as filed in PubChem.
# Cruzain Triton: inhibitors of Trypanosoma cruzi cruzain with detergent. P25779. purified cruzain, Z-FR-AMC fluorescence, 0.01% Triton. Potency, µM, inactives show max response, negative = inhibition, actives largely listed as inhibitors. 200,000 compounds, 0.43% hits. AID 1478;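 note: plate controls were neutral wells for no effect and buffer without enzyme for full effect; nearly all actives have a fitted effect of over 40% in size; top concentration of the series not given in the record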
# Target sequence (P25779 123-467 limits assumed): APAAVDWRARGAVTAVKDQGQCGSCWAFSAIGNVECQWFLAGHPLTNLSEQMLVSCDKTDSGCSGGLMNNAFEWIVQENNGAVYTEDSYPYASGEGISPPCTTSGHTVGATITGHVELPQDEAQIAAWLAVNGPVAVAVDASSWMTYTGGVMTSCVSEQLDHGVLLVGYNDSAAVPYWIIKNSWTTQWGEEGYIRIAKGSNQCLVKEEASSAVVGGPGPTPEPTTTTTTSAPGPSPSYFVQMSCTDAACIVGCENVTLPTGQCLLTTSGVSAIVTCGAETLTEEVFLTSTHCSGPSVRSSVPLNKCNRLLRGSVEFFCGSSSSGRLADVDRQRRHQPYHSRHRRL
#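 Detergent-containing run (0.01% Triton X-100) in acetate buffer pH 5.5 with 5 mM DTT: enzyme at 1.5 nM final, 15 min compound preincubation at room temperature, then 2 uM Z-FR-AMC substrate. Activity taken as 60 s fluorescence increase at 360/450 nm.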
# Cruzain inh noDet: cruzain (T. cruzi) inhibition without detergent | P25779 | purified cruzain, Z-FR-AMC fluorescence, no detergent | 200,000 compounds, 2.3% hits | Potency, µM, for inactives: max response, negative = inhibition, actives largely listed as inhibitors;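 note: plate controls were enzyme without inhibitor for no effect and buffer without enzyme for full effect; nearly all actives have a fitted effect of over 40% in size; top concentration of the series not given in the record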
#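 Detergent-free condition (0.00005% Triton X-100) in acetate buffer pH 5.5 with DTT. 1.5 nM enzyme and compound were pre-mixed 15 min, then 2 uM Z-FR-AMC substrate added; reaction progress from fluorescence change between first and third reads (60 s).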
# Marburg entry inh: Marburg virus entry inhibition | Marburg virus pseudotyped entry inhibition, cell reporter; control for the full effect not named in the record; about a third of the inactives were read at about 46 µM | Potency, µM (highest dose often 37.8 µM), for the others: at the highest dose activity change, negative = inhibition, usual class: inhibitors | 300,000 compounds, 1.8% hits; active = well fitted inhibition curve with a large enough effect; inconclusive = small, poorly fitted or top-dose-only effect, or effect the other way; inactive = flat fitted curve, though single readings scatter; tested in HEK293 cells; about a fifth of its hits are not listed in these tables; note: % is set by controls: 0 for no effect and ±100 for the full control effect; luciferase read-out
# Lassa entry inh: Lassa virus entry inhibition; Lassa virus pseudotype entry inhibition, cell reporter; control for the full effect not named in the record; Potency, µM (top dose mostly 37.9 µM), inactives show top-dose activity change, negative = inhibition, most hits filed as inhibitors; 300,000 compounds, 1.2% hits; AID 540256; active means well fitted inhibition curve with a large enough effect; inconclusive means small, poorly fitted or top-dose-only effect, or effect the other way; inactive means flat fitted curve, though single readings scatter; tested in HEK293 cells; note: % is set by controls: 0 for no effect and ±100 for the full control effect; nearly all actives have a fitted effect of over 50% in size; luciferase read-out
# NS1 function inh: inhibitors of influenza NS1 protein function; S. cerevisiae slowed by influenza A NS1, growth recovery by OD600; Potency, µM (titrated, usually from 46.1 µM), for the others: at the highest dose activity, positive = more growth; 270,000 compounds, 0.4% hits; AID 2326; active means well fitted rising curve with a large enough effect; inconclusive means small, poorly fitted or top-dose-only effect; inactive means no such curve, though single readings can be large or run the other way; note: nearly all actives have a fitted effect of over 50% in size
#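 OD600 was taken as the measure of yeast growth restored by compound in an NS1-expressing S. cerevisiae strain. Cells had been washed out of glucose medium and diluted 1:100 into galactose -URA medium, pH 6.0.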
# RE007 growth inh: less growth of the S. pombe RE007 Vpr strain; AID 651644; S. pombe RE007 Vpr strain, BacTiter-Glo ATP luminescence, 24 h; control for the full effect not named in the record; 360,000 compounds, 0.21% hits; Potency, µM (titrated, usually from 92.2 µM), for the others: at the top dose activity change, negative = less growth; active = well fitted falling curve with a large enough effect; inconclusive = small, poorly fitted or top-dose-only effect; inactive = no such curve, though single readings can be large or run the other way;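 note: % is set by controls: 0 for no effect and ±100 for the full control effect; nearly all actives have a fitted effect of over 50% in size; the assay follows cell death caused by Vpr and the record does not say whether a fall means rescue or toxicity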
#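 Fission yeast strain RE007, carrying one chromosomally integrated HIV-1 vpr copy, was seeded at OD 0.01 in PMG+AL medium with 23 nL pinned compound. After 24 h at 30 °C and 99% humidity, viability was read by BacTiter-Glo luminescence.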
# SARS PLpro yeast: blocks SARS-CoV papain-like protease in a yeast assay. 330,000 compounds, 0.19% hits. Potency, µM (series often up to 32.9 µM), inactives show at the top dose activity, positive = growth rescue. S. cerevisiae expressing SARS-CoV PLpro, growth rescue; control for the full effect not named in the record; active means well fitted rising curve with a large enough effect; inconclusive means small, poorly fitted or top-dose-only effect; inactive means no such curve, though single readings can be large or run the other way; note: 0% is about no effect; nearly all actives have a fitted effect of over 55% in size; growth read by luminescence after 48 h
# StopGo reporter: lowers the luciferase signal of an FMDV 2A StopGo reporter; human cells with a luciferase reporter of 2A StopGo recoding; control for the full effect not named in the record; Potency, µM (titrated, usually from 57.9 µM), without a hit: top-dose signal change, negative = less light; 410,000 compounds, 1.2% hits; active = well fitted falling curve with a large enough effect; inconclusive = small, poorly fitted or top-dose-only effect; inactive = no such curve, though single readings can be large or run the other way; tested in HEK293T cells; note: % is set by controls: 0 for no effect and ±100 for the full control effect; nearly all actives have a fitted effect of over 45% in size; luciferase light after 4 h
# * marks the source's active call; other numbers are inactive results; ? = inconclusive; / = no result given; & = joins results of further samples; [ ] = dose if it differs, or a comment. Unless noted, calls come from the whole dose curve; as a rule, active = well fitted curve in the direction sought with a large enough effect; inconclusive = small, poorly fitted or top-dose-only effect, or another doubt; inactive = no such curve, though single readings can be large; an effect the other way counts as inactive or inconclusive. Potency is the fitted concentration of half-maximal effect.
molecule	Cruzain Triton	Cruzain inh noDet	Marburg entry inh	Lassa entry inh	NS1 function inh	RE007 growth inh	SARS PLpro yeast	StopGo reporter
C/C(Cl)=C\Cn1c(NCCc2ccccc2)nc2c1c(=O)n(C)c(=O)n2C	-1.4%	-2%	3.7µM*	4.6µM*	-49%	-3%	2%	/
CC(C)(C)c1ccc(OCC(=O)Nc2ccc(-c3nc4cccnc4o3)cc2)cc1	-21%	-103%	29%	15%	15%	1%	/	12%
c1ccc2sc(Nc3nc4cc5c(cc4s3)OCO5)nc2c1	1.4%	25µM*	?	?	8%	-3%	-48%	1%
O=C(NC(=S)N1CCc2ccccc21)c1ccccc1Cl	/	/	5%[46.1 µM]	-1%	-22%	0%	-3%	31%[activator]
O=C(NC(=S)Nc1ccc(CN2CCOCC2)cc1)c1cc2ccccc2o1	/	/	/	/	6%	-2%	0%	9%
COc1cc(OC)c(NC(=O)c2ccc3nc(C(C)C)oc3c2)cc1Cl	-5.0%	?	/	-5%[46.1 µM]	/	/	/	13µM*
CC1(C)CC(=O)c2cc(C(=O)NC3CCSC3=O)c(=O)n(-c3ccccc3)c2C1 (configuration not stated)	-2.6%	-2%	0%	-19%	?	2%	2%	0%
COc1ccc(S(=O)(=O)N2CC(C)N(C(=O)N(C)C)C2C(C)C)cc1 (configuration not stated)	/	/	-1%[46.1 µM]	10%	15%	-2%	5%	6%
CCCNC(=S)N1CCN(c2nc(C)nc3sc4c(c23)CCCC4)CC1	/	/	?	?	-48%	33%	-5%	-28%
Cc1ccc(S(=O)(=O)N2CCOCC2)cc1NC(=O)COC(=O)Cc1ccsc1	-2.6%	3%	23%[46.1 µM]	-1%[46.1 µM]	-4%	-19%	1%	-2%
Cc1ccc(CN2CCN(Cc3ccc4c(c3)OCCO4)CC2CCO)cc1 (configuration not stated)	/	/	/	/	-3%	-11%	0%	-22%
COc1ccc(-n2c(N)c(C(=O)NCC3CCCO3)sc2=S)cc1 (configuration not stated)	-4.4%	-4%	5%	0%	4%	4%	-10%	0%
C=CCn1cccc(C(=O)Nc2ccc(C)c(Cl)c2)c1=O	/	/	11%	?	-4%	0%	1%	36%[activator]
Cc1ccc2oc(C(=O)N(Cc3ccccc3F)C3CCS(=O)(=O)C3)c(C)c2c1 (configuration not stated)	-8.7%	4%	?	-23%[46.1 µM]	/	/	/	0%
COc1ccc(C2C(C(=O)O)c3ccccc3C(=O)N2C)cc1Br (configuration not stated)	4.8%	1%	8%	18%	6%	2%	-6%	-11%
COc1ccc(Cl)cc1NC(=S)NC(=O)c1ccc2c(c1)OCO2	/	/	-1%	-23%	/	-3%	/	-21%
COc1ccc(-c2cc3c(=O)n(CC(=O)NCc4cccnc4)nc(C)n3n2)cc1	/	/	?	17%[46.1 µM]	15%	3%	-1%	1%
Cc1ccc(-c2noc(-c3nnn(-c4cccc(C(F)(F)F)c4)c3N)n2)cc1	0.5%	2%	/	16%[46.1 µM]	/	/	/	-16%
COc1ccccc1Nc1ncc2c(n1)CCN(Cc1ccc(C)s1)C2	2.0%	-5%	/	-1%[46.1 µM]	/	/	/	-18%
N#CC1(NC(=O)COC(=O)/C=C/c2ccc3ccccc3n2)CCCCC1	/	/	/	/	-2%	4%	-7%	-10%
O=C(/C=C/c1ccccc1)C1C(=O)c2ccccc2C1=O	-8.2%	-1%	9%	7%	-10%	-18%	-24%	?
CCCCCn1c(N2CCOCC2)nc2c1c(=O)n(CC(N)=O)c(=O)n2C	1.9%	6%	28%	3%	-1%	1%	2%	-14%
CC(C)CCNC(=S)Nc1ccc(Br)cc1	-6.8%	2%	?	?	-34%	-22%	-80%	-16%
Cc1ccc2nc(Cl)c3cc(C(=O)NC4CCC(C)CC4)sc3c2c1 (configuration not stated)	-2.6%	1%	10%[46.1 µM]	-11%[46.1 µM]	/	/	/	3%
Cc1cc(C(=O)N/N=C/C=C/c2ccc([N+](=O)[O-])cc2)n[nH]1	/	/	8%[46.1 µM]	25%[46.1 µM]	/	-5%	-1%	-14%
CSc1nc2ccccc2c(=O)n1Cc1ccc(F)cc1	/	/	?	13%	-1%	1%	0%	-17%
Cc1cc(C)n2nc(-c3ccsc3-n3c(C)ccc3C)cc2n1	-0.3%	-13%	?	1%	16%	-14%	-1%	-3%
CC(=O)SC(C)CC(=O)NCc1ccccc1 (configuration not stated)	2.0%	-4%	12%	12%	2%	9%	-1%	/
COc1ccc(CNC(=O)c2cc3ccccn3n2)c(OC)c1	0.7%	-6%	/	-2%[46.1 µM]	/	/	/	29%
Cc1cccc(CC2S/C(=N/N=C/c3ccco3)NC2=O)c1 (configuration not stated)	/	/	-16%[46.1 µM]	-3%	-2%	-10%	-1%	-10%
CCN(CCO)c1nc(SC)nc2c1sc1nc(-c3ccco3)c3c(c12)CCC3	8.9µM*	6.3µM*	10%	2%	?	-21%	3%	?
O=C1NC(=O)C(=Cc2ccccc2OCCOc2ccc([N+](=O)[O-])cc2)C(=O)N1	/	/	?	?	/	-2%	-12%	25%
O=C(O)CCCCCn1c(SCC(=O)Nc2ccc(F)cc2)nc2ccsc2c1=O	/	/	?	8%[46.1 µM]	/	4%	2%	-12%
COc1ccccc1NC(=O)Cn1nnc(-c2ccccc2NC(=O)c2cc3ccccc3oc2=O)n1	1.6%	?	?	12%	0%	12%	2%	/
CCCc1cc(C(=O)N2CCCN(C)CC2)cs1	/	/	/	/	17%	6%	39%	7%
COc1ccccc1CNC(=O)CN(C)S(=O)(=O)c1ccc2c(c1)n(C)c(=O)c(=O)n2C	/	/	/	/	3%	-1%	0%	-4%
CC(=O)Nc1ccc(S(=O)(=O)N(C)c2ccc(OCC(=O)OCC(=O)NCc3ccco3)cc2)cc1	/	/	/	/	-8%	-4%	1%	26%
COc1ccc(CC(=O)NCC(C)(C)N2CCOCC2)cc1	/	/	4%[46.1 µM]	/	0%	-10%	0%	-9%
Cc1nnc(NCc2ccccc2)c2c1nnn2Cc1ccc(F)cc1	3.2%	10%	-4%[46.1 µM]	?	/	/	/	-15%
CN(Cc1ccccc1)S(=O)(=O)c1ccc(OCC(=O)Nc2cccc([N+](=O)[O-])c2)cc1	-3.1%	-21%	21%	-1%	3%	-8%	2%	-18%
CCC(=O)c1ccc(OCC(O)Cn2nnc3ccccc32)cc1 (configuration not stated)	/	/	?	27%	/	3%	-1%	32%[activator]
O=C(NC1CCCC1)C(c1ccccc1F)N(C(=O)Cc1cccs1)c1ccc2c(c1)OCCO2 (configuration not stated)	-3.0%	13%	?	?	10%	11%	6%	-5%
Cc1cc(C)c2c(c1)/C(=N/NS(=O)(=O)c1ccccc1)CCC2	-7.1%	4%	11%	2%	6%	21%	-5%	29%
CCc1ccc(C2=Nn3c(nnc3-c3cccs3)SC2)cc1	-9.8%	-8%	-11%	-24%	-54%	7%	-10%	?
COc1ccc2cc3cc(C(=O)NCCc4ccccc4)sc3nc2c1Cl	-1.8%	1%	/	23%[46.1 µM]	/	/	/	18%
Cc1cccc(-c2nc(C)c(CCNC(=O)C(=O)Nc3ccc(C)c(C)c3)s2)c1	-1.3%	-4%	/	-1%[46.1 µM]	/	/	/	-16%
COCCN(C(=O)COC(=O)/C=C/c1nc2ccccc2s1)c1c(N)n(Cc2ccccc2)c(=O)[nH]c1=O	/	/	?	-18%	/	-8%	-2%	6%
Cc1cc(S(=O)(=O)NC(C)C)ccc1OCC(=O)N1CCOCC1	0.6%	-10%	0%	-2%	1%	18%	-2%	16%
COc1ccc(C(=O)CC(=O)C(=O)Nc2cc(C)ccc2C)cc1	/	/	-24%[46.1 µM]	-11%[46.1 µM]	-5%	-15%	1%	-6%
CC(=O)Nc1cccc(C(=O)Nc2cccc3ncccc23)c1	/	/	-11%[46.1 µM]	/	12%	17%	-3%	6%
CC(C)OC(=O)CSc1nnc(SCc2cccc3ccccc23)s1	-1.1%	-9%	4%[46.1 µM]	-3%	-51%	0%	3%	-19%
COc1cc2c(cc1OC)-c1cc(NCc3ccccn3)nc(=O)n1CC2	-27%	-18%	-1%&-1%	7%	2%	14%	-4%	-5%
CC(C)NC(=O)C1CCCN(S(=O)(=O)c2cccc3nonc23)C1 (configuration not stated)	/	/	17%[46.1 µM]	5%[46.1 µM]	8%	-12%	15%	1%
CCOC(=O)Nc1sc(C)c(C)c1C(N)=O	-1.6%	-9%	?	5%	1%	-21%	-31%	-5%
COc1cc(/C=C/C(=O)OCC(=O)NC2CCCCCCC2)ccc1O	/	/	10%	-29%	/	-9%	-3%	4%
CCCOc1ccc(-c2c(C(=O)N/N=C/c3cccs3)nnn2-c2nonc2N)cc1	/	/	?	?	7%	-1%	1%	6%
CCc1ccccc1NC(=O)Cn1c(=O)n(Cc2ccc3c(c2)OCO3)c(=O)c2ccc(C(=O)NC3CCCCC3)cc21	5.2%	-9%	8%[46.1 µM]	8%[46.1 µM]	/	/	/	0%
CCNC(=O)CC1C(=O)N(CC)C(=S)N1NC(=O)c1cccnc1 (configuration not stated)	/	/	13%[46.1 µM]	1%[46.1 µM]	/	-5%	5%	0%
CCc1ccc(NC(=O)Cn2cnc([N+](=O)[O-])c2)cc1	/	/	/	/	0%	-1%	3%	-15%
CC(C)(C)n1nnnc1C(c1ccc(C#N)cc1)N1CCCC2(CCCCC2)C1 (configuration not stated)	2.6%	-5%	?	?	-39%	7%	-7%	/
CCCCc1nnc(NC(=O)CSc2nc(O)c(Cc3ccccc3)c(=O)[nH]2)s1	/	/	?	-23%	/	-2%	2%	-17%
Cc1ccc(C2CC3CCC(C2)N3Cc2ccccc2F)cc1 (configuration not stated)	/	/	?	?	-16%	3%	-4%	?
CCN(C(=O)COC(=O)c1ccc(COc2ccc3c(C)cc(=O)oc3c2)cc1)C1CCS(=O)(=O)C1 (configuration not stated)	/	/	?	-12%	15%	0%	-2%	28%

# Hits appear at their usual frequency, and some 4.5% of all compounds hit somewhere here.
